Bioassay records deposited in PubChem BioAssay by National Center for Advancing Translational Sciences (NCATS).
gsp agonist = qHTS for Agonist of gsp, the Etiologic Mutation Responsible for Fibrous Dysplasia/McCune-Albright Syndrome: qHTS | gsp mutant cells, cAMP HTRF, 30 min; control for the full effect not named in the record | Potency, µM (series often up to 76.9 µM), for inactives: at the top dose activation (cAMP increase), usual class: activators | 0.13% of 340,000 active | AID 624287, 2012; active = well fitted activation curve with a large enough effect; inconclusive = small, poorly fitted or top-dose-only effect, or another doubt; inactive = no such curve, though single readings can be large or run the other way; cell line not stated here;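 note: phosphodiesterase inhibitor Ro 20-1724 added with compounds to block cAMP breakdown; potency is the fitted concentration of half-maximal effect; nearly all actives have a fitted effect of over 60% in size; about a fifth of the inactives were tested at one dose only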
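Cells stably selected in G418 were plated at 2000/well, grown 16-24 hr, then given compounds in DMSO with the PDE inhibitor […] (300 uM solution added) for 30 min at 37C; cAMP was read by HTRF.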
D2 PAM = Beta-Arrestin HTS for Positive Allosteric Modulators of the Human D2 Dopamine Receptor: Potentiators; 0.23% of 360,000 active; potentiation, % (test concentration not listed); DiscoveRx D2 beta-arrestin cells, luminescence, 90 min; 100% = 57 uM dopamine signal; active = potentiation of 50% or more; inconclusive = 30% to 50%; inactive = 30% or less;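 note: compound concentration not given in the record; tested on top of an EC20 dose of dopamine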
Target sequence (P14416 whole entry, looked up): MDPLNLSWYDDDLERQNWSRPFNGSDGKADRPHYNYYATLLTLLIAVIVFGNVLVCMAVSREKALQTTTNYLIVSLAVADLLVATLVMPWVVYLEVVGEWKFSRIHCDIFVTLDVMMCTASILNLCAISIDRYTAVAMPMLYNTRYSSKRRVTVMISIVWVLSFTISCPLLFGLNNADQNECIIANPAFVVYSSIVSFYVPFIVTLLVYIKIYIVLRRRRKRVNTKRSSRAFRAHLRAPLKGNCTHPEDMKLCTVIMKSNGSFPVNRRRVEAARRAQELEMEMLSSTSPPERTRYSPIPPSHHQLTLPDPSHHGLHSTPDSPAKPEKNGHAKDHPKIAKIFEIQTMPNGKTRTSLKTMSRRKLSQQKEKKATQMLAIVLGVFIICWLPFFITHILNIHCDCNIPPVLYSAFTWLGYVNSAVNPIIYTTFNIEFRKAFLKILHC
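PathHunter beta-arrestin assay in DiscoveRx D2 cells. Compounds were added with an EC20 of dopamine (50 nM final) for 90 min at 37 deg C. Luminescence was read 1 h after detection reagent, with 57 uM dopamine as the EC100 control.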
D2 ag = Beta-Arrestin HTS for Positive Allosteric Modulators of the Human D2 Dopamine Receptor: Agonists | activation, % (test concentration not listed) | D(2) dopamine receptor (Homo sapiens), P14416 | 0.084% of 360,000 active | DiscoveRx PathHunter D2 beta-arrestin, luminescence, 90 min; 100% = 57 uM dopamine signal; in the data active = activation above about 40%; inconclusive = about 15% to 40%; inactive = below about 15%; note: compound concentration not given in the record; the text of the record calls up to 30% inactive
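Agonist mode: compounds alone added to overnight-plated D2 PathHunter cells for 90 min at 37 C, with 57 uM final dopamine (EC100) defining full response. Beta-arrestin recruitment detected by chemiluminescent reagent, read after 1 h at ambient temperature.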
Six1-Eya2 inh = qHTS Assay for Inhibitors of the Six1/Eya2 Interaction; Homeobox protein SIX1 (Homo sapiens) + Protein phosphatase EYA2 (Homo sapiens), …; AlphaScreen GST-Six1/His-Eya2 binding, biochemical; active compounds read low; control for the full effect not named in the record; activity change, % (concentration not given with the values); 0.56% of 360,000 active; AID 651725, 2012; in the data active = activity change below about -65%; inconclusive = about -30% to -65%; inactive = above about -30%; note: % is set by controls: 0 for no effect and ±100 for the full control effect
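Compounds are tested against tagged Six1 and Eya2 proteins bridged by glutathione donor and nickel acceptor beads; after a one-hour incubation at 37 °C without light, AlphaScreen emission is recorded.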
gsp antagonist = qHTS for Antagonists of gsp, the Etiologic Mutation Responsible for Fibrous Dysplasia/McCune-Albright Syndrome: qHTS. gsp-mutant cells, cAMP HTRF, 30 min; control for the full effect not named in the record. Potency, µM (top dose mostly 76.9 µM), for inactives: top-dose activity change, negative = inhibition, actives largely listed as inhibitors. 0.4% of 340,000 active. AID 624288, 2012; active = falling curve of any shape with a large fitted effect; inconclusive = falling curve, mostly with a smaller effect; inactive = flat or rising curve; cell line not stated here;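 note: intracellular cAMP measured with PDE inhibitor Ro 20-1724 present during compound exposure; potency is the fitted concentration of half-maximal effect; % is set by controls: 0 for no effect and ±100 for the full control effect; nearly all actives have a fitted effect of over 65% in size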
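HTRF cAMP measurement after 30 min RT detection following 30 min, 37C compound treatment alongside […] (added as 300 uM solution) in G418-selected cells seeded at 2000/well and grown 16–24 h.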
CtBP-E1A blk = qHTS Assay for Inhibitors of the CtBP/E1A Interaction; AlphaScreen GST-E1A/His-CtBP binding, 1536-well; active compounds read low; control for the full effect not named in the record; CtBP / adenovirus E1A interaction (AlphaScreen); AID 651724, 2012; 0.49% of 340,000 active; activity change, % (test concentration not listed); in the data active means activity change below about -65%; inconclusive means about -30% to -65%; inactive means above about -30%; note: % is set by controls: 0 for no effect and ±100 for the full control effect
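AlphaScreen with 125 nM GST-E1A and 125 nM His-CtBP (5X stocks) in Tris pH 8.0, 300 mM NaCl, BSA, Tween 20, TCEP. Compounds preincubated 2 h at 37 deg C, then glutathione donor/nickel acceptor beads added for 1 h at 37 deg C in dark.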
* marks the source's active call; other numbers are inactive results; ? = inconclusive; nt = no result given; [ ] = another dose, or the depositor's remark.

mol,gsp agonist,Six1-Eya2 inh,gsp antagonist,CtBP-E1A blk,D2 ag,D2 PAM
O=C(NCCc1ccccc1)C1CCCN1C(=O)Nc1cccc(Cl)c1 (stereo not drawn),6%,3,0%,nt,-4.9,-64
COc1cc2c(cc1OC(C)=O)C(=O)CCCC2,nt,2,nt,2,-3.7,0
CCC1=Nc2cc(C(=O)NCCCN3CCOCC3)ccc2Sc2ccc(Br)cc21,?,-9,6%,-12,0.1,-3
COc1ccc(-n2ccnc2SCC(=O)NCc2ccc3c(c2)OCO3)cc1,21%,-15,1%,-10,-0.2,-9
Cc1ccc(NC(=O)c2cccc(N3C(=O)CCC3=O)c2)nc1,-50%[inhibitor],0,7%,2,0.0,-20
COc1cccc(CN2CCC(C(=O)N3CCC(C)CC3)CC2)c1,-19%,0,15%,-1,-3.5,-12
COc1ccc(C(=O)Nc2ccnn2C2CCN(Cc3ccccn3)CC2)cc1,?,-3,15%,0,-1.1,-15
CCC(c1nnnn1CCOC)N1CCN(c2nc3ccccc3s2)CC1 (stereo not drawn),-10%[15.4 µM],0,-2%,0,-6.3,-3
Nc1cc(C(=O)OCC(=O)NCC2CCCO2)ccc1Cl (stereo not drawn),?,2,-6%,9,-0.5,-7
Cc1ccc(C(=O)CCC(=O)OCC(=O)Nc2ccccc2SCC#N)cc1,0%,1,8%,2,-7.4,1
CC(C)Oc1ccc2c(=O)c(-c3ccccc3)coc2c1,nt,5,-16%,2,-3.8,-8
CCN(Cc1ccccc1)C(=O)c1oc2ccc(C)cc2c1C,12%[15.4 µM],27,-14%,15,4.2,-1
COc1ccc(OCCSc2nnc(-c3ccccc3)n2N)cc1,-21%,-5,4%,-3,-2.8,-8
O=C(C[n+]1cc(-c2ccc(Cl)cc2)n2c1CCC2)Nc1nc(-c2ccccc2)cs1,0%,-7,0%,nt,-7.0,-31
CC(OC(=O)/C=C/c1ccc2ccccc2n1)C(=O)NCc1ccccc1 (stereo not drawn),-20%,0,-7%,-3,6.4,0
O=C(/C=C/c1ccc(F)cc1)c1ccc(N2CCOCC2)cc1,7%[15.4 µM],5,6%,-4,-0.5,0
Cc1nn(C)c(C(=O)Nc2ccn(Cc3c(F)c(F)cc(F)c3F)n2)c1[N+](=O)[O-],13%,4,11%,3,-2.5,-7
CN1CCN(C(=O)/C(=C/c2ccccc2F)NC(=O)c2ccccc2)CC1,2%[15.4 µM],0,10%,0,1.2,-5
O=c1[nH]c(CCC2CCCC2)nc2ccccc12,19%,0,-7%,0,1.0,-3
O=C(Nc1ccc(Cl)cc1)c1ccncc1,-21%,0,13%,-2,-3.7,4
CCNC(=O)C1(C)CCN(Cc2cccc(C(F)(F)F)c2)C1 (stereo not drawn),nt,1,nt,3,-5.8,-15
COc1cccc(OC)c1OCc1cc(C2C3CCCC=C3C(C#N)=C(N)C2(C#N)C#N)c(C)cc1C (stereo not drawn),-53%[inhibitor],-1,?,-3,-0.5,17
CCOc1ccc(CNCCCSc2ncccn2)cc1OC,-11%,5,6%,nt,-1.1,6
O=C(COc1ccc(S(=O)(=O)NC2CCCCC2)cc1)NCCC1=CCCCC1,-15%,7,-5%,0,0.2,1
O=C1CCCC(O)=C1N=Nc1cccc(C(=O)O)c1,19%[15.4 µM],-15,1%,0,-1.6,-2
CCOC(=O)N1CCN(S(=O)(=O)c2ccc(C(=O)Nc3nc4ccc(F)cc4s3)cc2)CC1,-9%,8,?,-12,-4.8,1
COc1ccc(Cl)cc1N1C(=O)CC(N2CCc3ccccc32)C1=O (stereo not drawn),1%,-2,-13%,-4,0.2,-8
CCOC(=O)C1CCCN(C2=C(NS(=O)(=O)c3ccc(Br)cc3)C(=O)c3ccccc3C2=O)C1 (stereo not drawn),21%,-71*,?,nt,9.5,-2
NS(=O)(=O)c1ccc(N2CCCCCC2)c([N+](=O)[O-])c1,-11%[15.4 µM],-3,-3%,-1,-2.7,-8
Cc1ccc(C(=O)OCC(=O)Nc2cccc(S(=O)(=O)NC3=NCCCCC3)c2)c(C)c1,-3%[15.4 µM],?,-25%,-15,-6.3,-16
Cc1ccccc1C(=O)NNC(=O)c1cc(N)cc([N+](=O)[O-])c1,-9%,-9,7%,-15,-4.7,-10
COc1ccc(N2C(=O)CSC2c2cccc(F)c2)cc1 (stereo not drawn),4%[15.4 µM],4,2%,5,4.0,3
S=c1[nH]nc(-c2cccnc2)n1/N=C/c1ccccc1,9%[15.4 µM],3,?,1,-0.1,-18
Cc1oc(C2CC2)cc1C(=O)O,-46%[inhibitor],-2,3%,2,1.9,9
CCOc1cc(CNCCc2ccc(S(N)(=O)=O)cc2)ccc1OCC(=O)NC(C)(C)C,1%,0,1%,10,-2.0,-18
CN1OC(COC(=O)c2ccc(Cl)cc2)CC1c1ccccc1 (stereo not drawn),-29%,17,0%,12,-2.3,6
O=C(NCCC1=CCCCC1)c1ccc2c(c1)N(Cc1ccccc1)C(=O)CS2,24%,0,-3%,3,-2.8,-17
COc1ccc(Nc2nc(CC(C)=O)ns2)cc1OC,0%,4,2%,-6,1.2,-19
O=[N+]([O-])c1cnc2nc(-c3ccncc3)nn2c1O,?,0,6%,-9,6.0,2
O=C(CN1CCCC1)Nc1cccc(Cl)c1Cl,-28%,-2,-3%,nt,1.6,-43
COc1cc(C(=O)OCc2csc(CC(=O)Nc3ccccc3C)n2)ccc1OCC(C)C,7%[15.4 µM],-2,?,5,1.3,0
Cc1cccc(CNCc2ccccc2)c1,0%,-3,-5%,3,-2.1,-24
O=C(Nc1nncs1)C1c2ccccc2Oc2ccccc21,0%,3,1%,-7,-2.1,-10
COc1cccc(CNC(=O)C2CCCN(S(=O)(=O)N3CC(C)CC(C)C3)C2)c1 (stereo not drawn),-1%,0,2%,1,-0.8,-5
COc1ccc(C(=O)Oc2ccc(/C=N/NC(=O)c3cccnc3)cc2OC)cc1,-1%,0,-11%,-10,12,2
COc1ccc(-c2c(C#CC(C)(C)O)c3ccccc3n2C)cc1,nt,-5,-22%,1,-0.1,-18
CCN(CC)S(=O)(=O)c1ccc(NC(=O)c2ccc(CN3CCOCC3)cc2)cc1,-16%,1,?,2,0.2,-10
COc1ccc(N(CC(=O)Nc2cc(C)on2)S(=O)(=O)c2ccc(Cl)cc2)cc1,1%,2,9%,11,-3.9,16
COc1ccc(C(=O)Nc2ccccc2C)cc1S(=O)(=O)N1CCOCC1,25%,-4,-23%,2,7.9,-2
O=C1CCCC/C1=C\Nc1ccc(C(=O)O)c(O)c1,-1%,-5,-3%,-10,-0.9,-7
CC1(C)CC(=O)/C(=C\c2cccc([N+](=O)[O-])c2)C(C)(C)N1,7%[15.4 µM],-9,15%,-5,-18,-9
COc1ccc(C#Cc2cccc(-c3nc(C(=O)NCc4ccc(Oc5ccccc5)cc4)cc4c3[C@@H](CCO)N(S(=O)C(C)(C)C)C4)c2)cc1OC (stereo partly drawn),nt,-14,nt,-10,12,?
COc1ccc(OC)c(N2C(=O)c3cccnc3C2=O)c1,-67%[inhibitor],13,6%,12,-3.8,-3
Cc1ccc(/C(N)=N/OC(=O)CN(C)S(=O)(=O)c2ccc(C)cc2)cc1,24%,7,-11%,17,1.2,9
Cc1ccc(OCCN(C)C(=O)c2cc(COc3ccc(F)cc3F)on2)cc1,-40%[inhibitor],8,-5%,10,-4.6,-9
CC1CC(=O)Nc2ccccc2N1C(=O)COc1cc(Cl)ccc1Cl (stereo not drawn),4%,-1,-4%,-9,1.8,-4

Following part
mol,gsp agonist,Six1-Eya2 inh,gsp antagonist,CtBP-E1A blk,D2 ag,D2 PAM
COc1cc(CNc2ncnc3c2ncn3[C@H]2CN(Cc3ccncc3)C[C@@H](CO)O2)cc(OC)c1OC,nt,0,nt,7,-3.5,1
COc1ccccc1CNC(=O)C(NC(=O)c1ccc(C)cc1)C(C)C (stereo not drawn),-1%,3,-8%,nt,-4.3,-16
CCCc1c(C(=O)N/N=C/c2ccncc2)nnn1-c1nonc1N,-2%,1,1%,nt,2.4,-4
O=C(COC(=O)CC1Sc2ccccc2NC1=O)NCc1ccccc1 (stereo not drawn),-3%[15.4 µM],7,-13%,4,-3.8,-14
C=CCSC1=NC(=O)/C(=C/c2cccs2)S1,29%[15.4 µM],3,1%,-8,-2.2,-5
CCOC(=O)CCc1c(C)c2ccc(OCc3ccc([N+](=O)[O-])cc3)cc2oc1=O,17%,-4,-3%,-2,-0.4,-18
COc1cc(C(C)=O)ccc1OCC(=O)Nc1ccc(S(=O)(=O)N2CCCCC2)cc1,-72%[inhibitor],-7,nt,-3,2.6,1
Cc1nn(CC(=O)NCc2cccc(F)c2)c(=O)c2cccn12,27%,-3,-1%,nt,0.4,-3
CSc1ccccc1NC(=O)c1csc(C)c1,-1%,6,2%,14,0.5,-2
O=C(O)/C(=C\c1ccco1)NC(=O)c1cccc2ccccc12,13%,-1,7%,1,-3.6,-20
CC1C(=O)N(Cc2cn(CCC3OCCO3)nn2)CCS(=O)(=O)N1Cc1ccc(-c2ccc(F)cc2)cc1 (stereo not drawn),-23%,9,nt,2,-7.7,6
COc1ccccc1CNS(=O)(=O)c1cc(C(=O)NCC2CCCO2)c(Cl)cc1Cl (stereo not drawn),-2%,10,-4%,2,-0.4,-3
COc1ccccc1N(Cc1ccccc1)S(=O)(=O)c1cccc(C(=O)Nc2ccc(C(C)=O)cc2)c1,3%[15.4 µM],3,-13%,1,-6.1,-8
CS(=O)(=O)NNC(=O)c1sccc1OCc1ncc(C(F)(F)F)cc1Cl,25%[15.4 µM],9,-2%,-4,-2.6,-7
COCc1nc2oc3ccccc3c(=O)c2cc1C(=O)OC,?,6,-6%,5,1.2,-2
COc1cc(-n2cnnn2)ccc1S(=O)(=O)N1CCOCC1,-31%[inhibitor],-8,7%,-12,-2.3,1

Some of the entries so far, with two lines to a compound:
The line under a structure holds: gsp agonist, Six1-Eya2 inh, gsp antagonist, CtBP-E1A blk, D2 ag, D2 PAM
CC1C(=O)N(Cc2cn(CCC3OCCO3)nn2)CCS(=O)(=O)N1Cc1ccc(-c2ccc(F)cc2)cc1 (stereo not drawn)
 : -23%, 9, nt, 2, -7.7, 6
COc1ccccc1CNS(=O)(=O)c1cc(C(=O)NCC2CCCO2)c(Cl)cc1Cl (stereo not drawn)
 : -2%, 10, -4%, 2, -0.4, -3
